High-throughput results deposited in PubChem BioAssay by National Center for Advancing Translational Sciences (NCATS).
Six1-Eya2 blk – blocks human Six1 binding to Eya2. Q15475+O00167. AlphaScreen GST-Six1/His-Eya2 binding, biochemical; stronger effect = lower value; control for the full effect not named in the record. activity change, % (concentration not given with the values). 360,000 compounds, 0.56% hits; in the data active = activity change below about -65%; inconclusive = about -30% to -65%; inactive = above about -30%; further: on the % scale 0 is the no-effect control and ±100 the full control effect
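AlphaScreen with GST-Six1 and His-Eya2 (5X mix: 250 nM and 500 nM), glutathione donor and nickel acceptor beads; buffer 50 mM Tris pH 8.0, 300 mM NaCl, 1 mM TCEP; 1 h at 37 C in the dark.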
D2 potentiator – potentiates the human D2 dopamine receptor allosterically; DiscoveRx D2 beta-arrestin cells, luminescence, 90 min; 100% = 57 uM dopamine signal; potentiation, % (no concentration beside the values); 360,000 compounds, 0.23% hits; P14416; active = potentiation of 50% or more; inconclusive = 30% to 50%; inactive = 30% or less;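 further: compound concentration not given in the record; tested on top of an EC20 dose of dopamine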
Target sequence (P14416 whole entry, looked up): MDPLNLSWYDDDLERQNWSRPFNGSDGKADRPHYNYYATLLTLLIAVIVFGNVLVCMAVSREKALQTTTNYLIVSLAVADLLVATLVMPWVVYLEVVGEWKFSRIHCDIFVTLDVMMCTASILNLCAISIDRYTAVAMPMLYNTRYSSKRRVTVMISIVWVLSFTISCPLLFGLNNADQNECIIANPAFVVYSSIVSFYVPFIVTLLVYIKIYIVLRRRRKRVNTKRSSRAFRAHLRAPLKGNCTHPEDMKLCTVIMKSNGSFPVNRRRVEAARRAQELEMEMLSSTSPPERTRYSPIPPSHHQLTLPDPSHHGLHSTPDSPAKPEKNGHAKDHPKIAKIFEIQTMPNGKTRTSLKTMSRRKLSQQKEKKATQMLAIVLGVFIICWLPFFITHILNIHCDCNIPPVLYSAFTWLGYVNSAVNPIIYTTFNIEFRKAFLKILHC
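PathHunter beta-arrestin assay in DiscoveRx D2 cells. Compounds were added with an EC20 of dopamine (50 nM final) for 90 min at 37 deg C. Luminescence was read 1 h after detection reagent, with 57 uM dopamine as the EC100 control.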
CtBP-E1A blk – CtBP/E1A binding inhibition; activity change, % (no concentration beside the values); AID 651724; AlphaScreen GST-E1A/His-CtBP binding, 1536-well; stronger effect = lower value; control for the full effect not named in the record; 340,000 compounds, 0.49% hits; in the data active means activity change below about -65%; inconclusive means about -30% to -65%; inactive means above about -30%; further: on the % scale 0 is the no-effect control and ±100 the full control effect
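In 5 uL wells, 23 nL compound meets equimolar GST-E1A and His-CtBP (5X stock 125 nM each) for 2 h, 37 °C. Beads (5X, 50 ug/mL) then 1 h, 37 °C, dark.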
PINK1 expr mod – modulators of PINK1 expression; PINK1 immunofluorescence, high-content cytometry, 24 h; Potency, µM (series often up to 76.6 µM), for inactives: at the highest dose activation (PINK1 increase), hits mostly activators; 410,000 compounds, 0.2% hits; active = well fitted activation curve with a large enough effect; inconclusive = small, poorly fitted or top-dose-only effect; inactive = flat fitted curve, though single readings scatter; cell line not stated here;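 further: potency means the concentration at half of the fitted maximal effect; % of control where 0% means no effect; nearly all actives have a fitted effect of over 65% in size; a mitochondrial uncoupler was the plate control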
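A stable cell line was treated with compounds at 5 concentrations for 24 hours, with CCCP as control. PINK1 levels and mitochondrial localization were measured by immunofluorescence with mitochondrial, cell and nuclear markers after fixation, read by laser-scanning cytometry.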
D2 ag – activates the human D2 dopamine receptor; P14416; DiscoveRx PathHunter D2 beta-arrestin, luminescence, 90 min; 100% = 57 uM dopamine signal; activation, % (no concentration beside the values); 360,000 compounds, 0.084% hits; AID 624465; in the data active = activation above about 40%; inconclusive = about 15% to 40%; inactive = below about 15%; further: compound concentration not given in the record; the text of the record calls up to 30% inactive
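DiscoveRx PathHunter D2 beta-arrestin cells (2,100/well) attached overnight, then compound-stimulated 90 min at 37 C in HBSS/10 mM HEPES/0.1% Tween-20 buffer; beta-galactosidase complementation read by luminescence after 1 h at ambient temperature. Dopamine 57 uM final (EC100) as control.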
TRPML1 ag – human mucolipin-1 channel agonism; activation, % (test concentration not listed); AID 624414; TRPML1-expressing cells, Ca2+ dye fluorescence, FDSS; host cell line not named in the record; reference of the full effect not given here; 410,000 compounds, 0.12% hits; in the data active = activation above about 50%; inconclusive = about 30% to 50%; inactive = below about 30%; further: 0% is about no effect; the text of the record puts the active cut at 80%
Target sequence (Q9GZU1 whole entry, looked up): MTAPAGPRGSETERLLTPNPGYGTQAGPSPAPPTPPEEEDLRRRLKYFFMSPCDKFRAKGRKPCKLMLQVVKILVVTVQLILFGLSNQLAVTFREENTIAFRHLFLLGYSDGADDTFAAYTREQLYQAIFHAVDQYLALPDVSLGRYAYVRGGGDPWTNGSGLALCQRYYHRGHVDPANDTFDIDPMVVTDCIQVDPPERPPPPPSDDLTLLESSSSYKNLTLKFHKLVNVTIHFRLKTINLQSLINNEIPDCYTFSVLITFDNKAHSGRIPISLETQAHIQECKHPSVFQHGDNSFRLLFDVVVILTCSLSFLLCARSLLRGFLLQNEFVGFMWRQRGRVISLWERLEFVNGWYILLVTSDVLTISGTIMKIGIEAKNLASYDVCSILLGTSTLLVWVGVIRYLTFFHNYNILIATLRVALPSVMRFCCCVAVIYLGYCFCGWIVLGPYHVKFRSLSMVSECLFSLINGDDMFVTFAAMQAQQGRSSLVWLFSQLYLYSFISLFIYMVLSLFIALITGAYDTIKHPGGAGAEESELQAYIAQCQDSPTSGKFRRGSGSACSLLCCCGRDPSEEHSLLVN
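Cells: TRPML1-DL, 1X Tet inducer, ~16 h at 37 degrees C/5% CO2. Dye: ABD Ca8 no-wash + quencher, 45-90 min RT. Read: 10 s baseline, compound add, 110 s agonist phase; 54-4 EC80 (4uM final), 110 s antagonist phase.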
* = called active by the depositor; · = no result given; [ ] = remark or other dose.

SMILES	Six1-Eya2 blk	D2 potentiator	CtBP-E1A blk	PINK1 expr mod	D2 ag	TRPML1 ag
CC(C)OC(=O)c1ccccc1C(=O)c1ccc(N)c([N+](=O)[O-])c1	-5	-2	-2	2.3%	1.6	-0.9
CC1CC(NC(=S)N(C)C)CC(C)(C)C1 (stereo unspecified)	-11	-5	-1	2.9%	-3.9	0.6
Cc1ccc(C2(c3ccc(C)cc3)CC2C(=O)NCc2cccnc2)cc1 (stereo unspecified)	5	-26	-14	1.0%	-3.4	-0.6
Cc1ccccc1-c1nc(C#N)c(N2CCCCC2)o1	-23	-7	-8	0.6%	-3.7	0.8
Nc1nnc(SCC(=O)NC2CCCC2)s1	1	-8	3	2.4%	-0.3	-0.4
COc1ccc(/C=C2/SC(=O)N(CCC(=O)Nc3ccccc3)C2=O)cc1OC	22	-6	·	4.2%	-1.3	0.8
O=C1OCC/C1=C\c1ccccc1	9	-22	14	-1.3%	-0.6	-0.7
CCN(CC)S(=O)(=O)c1ccc(N2CC(C(=O)NCc3cccnc3)CC2=O)cc1 (stereo unspecified)	0	-2	0	0.0%	-2.0	0.6
Cc1cc(F)ccc1S(=O)(=O)N1CCCOC1CNC(=O)C(=O)NCCc1ccco1 (stereo unspecified)	-13	-7	1	2.3%	-2.9	-0.6
Cc1cc(C)cc(N=C(NO)c2cccc([N+](=O)[O-])c2)c1	-1	-9	-1	3.3%	-0.6	0.5
O=C(O)CC1c2ccccc2CCN1S(=O)(=O)c1cccs1 (stereo unspecified)	8	-3	1	1.8%	3.9	0.0
CC(NC(=O)C1CCCN1S(=O)(=O)c1ccccc1)c1ccccc1 (stereo unspecified)	-2	-1	11	3.2%	1.0	-0.9
COc1cc(COCC(O)CN2CCOCC2)cc(OC)c1OC (stereo unspecified)	2	5	-1	0.4%	1.7	1.3
CC(C)N1CC(O)=C(c2nc3ccccc3c(=O)[nH]2)C1=N	-9	1	-6	1.3%	-4.8	-0.6
CN(Cc1cn(Cc2ccc(F)cc2)nn1)C1CN(Cc2cn(Cc3ccc(F)cc3)nn2)S(=O)(=O)C1 (stereo unspecified)	4	·	6	-0.1%	·	-0.9
Cc1ccc(NC(=O)C2COc3ccccc3O2)c(C)c1 (stereo unspecified)	-6	-2	0	0.0%	-4.3	-0.6
N#CC1(C#N)C(C(=O)C23CC4CC(CC(C4)C2)C3)C12CCOCC2 (stereo unspecified)	-1	-2	7	-0.1%	0.8	0.4
Cc1ccc2c(c1)P(=O)(O)c1cc(C)ccc1O2	5	-14	-2	-3.2%	-5.0	0.3
Cc1ccc(S(=O)(=O)N/N=C\c2ccc(Cl)c([N+](=O)[O-])c2)cc1	-14	-19	6	20%[38.3 µM]	1.0	0.8
Cc1cccc(NC(=S)NN2CCOCC2)c1C	0	-3	4	1.4%	1.5	-0.2

Copied from the results shown (4 entries):
SMILES	Six1-Eya2 blk	D2 potentiator	CtBP-E1A blk	PINK1 expr mod	D2 ag	TRPML1 ag
O=C(O)CC1c2ccccc2CCN1S(=O)(=O)c1cccs1 (stereo unspecified)	8	-3	1	1.8%	3.9	0.0
CC(NC(=O)C1CCCN1S(=O)(=O)c1ccccc1)c1ccccc1 (stereo unspecified)	-2	-1	11	3.2%	1.0	-0.9
COc1cc(COCC(O)CN2CCOCC2)cc(OC)c1OC (stereo unspecified)	2	5	-1	0.4%	1.7	1.3
CC(C)N1CC(O)=C(c2nc3ccccc3c(=O)[nH]2)C1=N	-9	1	-6	1.3%	-4.8	-0.6

The listing continues.
SMILES	Six1-Eya2 blk	D2 potentiator	CtBP-E1A blk	PINK1 expr mod	D2 ag	TRPML1 ag
CC1(OC(=O)C2CCCC2)C(=O)C=C2C=C(c3ccsc3)N(C3CC3)C=C2C1=O (stereo unspecified)	-8	0	-9	0.3%	6.6	-0.4
COc1ccc(Nc2cc(C(=O)NCCCN3CCN(C)CC3)c3ccccc3n2)cc1OC	-6	-24	-8	-2.4%	-4.5	1.9
NC1=NC(=O)C(Cc2ccc(Br)cc2)S1 (stereo unspecified)	5	-4	·	-1.6%	-0.9	0.7
Cc1ccc(CNC(=O)C(c2ccccc2)c2ccccc2)cc1	7	-6	12	8.4%	-1.5	4.1
Cc1ccccc1C(=O)Nc1c(C(=O)N2CCCC2)cnn1-c1ccccc1	3	7	-3	·	-2.1	0.5
CCOc1ncccc1C(=O)Nc1c(C)n(C)n(-c2ccccc2)c1=O	4	4	9	4.7%	-1.9	-0.4
S=C(NCc1ccco1)N1CCN(C(c2ccccc2)c2ccccc2)CC1	-7	-8	4	·	-0.4	2.3
Brc1ccc(-c2nn[nH]n2)cc1	3	-10	0	0.0%	-8.4	·
CCn1c(CC(=O)Nc2ccccc2F)nnc1SCC(=O)NC1CCCCC1	-4	-4	-11	-3.3%	-1.8	-0.2
O=C(CN1CCN(Cc2cccc(Cl)c2)C1=O)NCC1CCCO1 (stereo unspecified)	-5	-9	5	0.1%	0.4	-0.5
CCC1CCCCN1CCNS(=O)(=O)c1ccc2c(c1)CCN2C(C)=O (stereo unspecified)	7	-8	7	-0.2%	1.1	-0.7
COc1cccc(C#CC2=CC(=O)C[C@H](c3ccc(F)cc3)C2)c1	0	-4	-8	-0.2%	-7.0	2.3
CCCCN(C(=O)c1[nH]c(C)c(C(=O)OCC)c1C)c1c(N)n(CCCC)c(=O)[nH]c1=O	1	-13	8	0.6%	-4.6	-0.3
O=C(c1ccc(Cl)c(S(=O)(=O)N2CCCCCC2)c1)N1CCCC(C(F)(F)F)C1 (stereo unspecified)	6	-1	-14	0.8%	4.4	1.1
CCOC(=O)c1ccc(-c2cccc(-c3cc(=O)oc4cc(OC)cc(OC)c34)c2)cc1	4	·	3	1.0%	-0.1	-0.4
CC(C)CC(OC(=O)c1ccc(Cl)nc1)C(=O)NC1CCCC1 (stereo unspecified)	-7	-12	-9	0.6%	-3.1	-0.5
CC1CC1C(=O)Nc1nc2ccc(S(C)(=O)=O)cc2s1 (stereo unspecified)	-3	-3	-12	2.6%	0.6	0.9
Cc1cccc(-n2ccc(=O)c(C(=O)O)n2)c1	6	3	-24	0.9%	-3.5	-0.2
O=C(COC(=O)/C=C/c1ccc(S(=O)(=O)N2CCOCC2)cc1)NCc1ccccc1	8	-10	8	0.9%	-0.7	-0.4
O=C1/C(=C/c2cccc(O)c2)SC(=S)N1CC1CCCO1 (stereo unspecified)	11	1	17	5.0%	-0.5	1.3
COc1ccc(N2CCN(C(=O)COC(=O)Cc3ccc(F)cc3)CC2)cc1	-2	3	-20	1.0%	0.2	-0.2
CN(C)S(=O)(=O)c1ccc(C(=O)OCCN=C2NS(=O)(=O)c3ccccc32)cc1	3	0	3	2.2%	-3.4	-0.4
CCCc1cc(C(=O)Nc2ccc(C)cc2)no1	0	-10	1	5.4%	-2.5	0.6
CC(=O)C1=C(C)OC(N)=C(C#N)C1c1cccc2ccccc12 (stereo unspecified)	-17	7	3	0.4%	-0.2	-0.5
O=C(CC(=O)Nc1cccc(Cl)c1)N/N=C\c1ccccc1	-7	-16	5	1.5%	-0.4	1.3
CCN(CC(=O)Nc1c(F)cccc1F)C(=O)CCOc1ccccc1	-5	-18	-14	-1.2%	-4.6	0.1
CCCNC(=O)Cn1c(=O)n(CC(=O)N2CCCCC2)c(=O)c2sccc21	-8	-28	-10	-0.1%	-15	0.5
O=Cc1cn(CCC(=O)O)nc1-c1cccc(Cl)c1	4	-26	-8	1.5%	-2.0	-0.2
CC(=O)NC1CC2CCCC(C1)N2CC(=O)Nc1ccccc1 (stereo unspecified)	7	-3	-2	-4.2%	-2.6	2.3
Cc1ccc(S(=O)(=O)N2CCC(C(=O)OCC(=O)N(Cc3ccccc3)C(C)(C)C)CC2)cc1C	-4	-13	-21	1.1%	-0.5	0.8

Filtered by structure, the compounds so far with a COOH group.
SMILES	Six1-Eya2 blk	D2 potentiator	CtBP-E1A blk	PINK1 expr mod	D2 ag	TRPML1 ag
O=C(O)CC1c2ccccc2CCN1S(=O)(=O)c1cccs1 (stereo unspecified)	8	-3	1	1.8%	3.9	0.0
Cc1cccc(-n2ccc(=O)c(C(=O)O)n2)c1	6	3	-24	0.9%	-3.5	-0.2
O=Cc1cn(CCC(=O)O)nc1-c1cccc(Cl)c1	4	-26	-8	1.5%	-2.0	-0.2

Continuation.
SMILES	Six1-Eya2 blk	D2 potentiator	CtBP-E1A blk	PINK1 expr mod	D2 ag	TRPML1 ag
Cc1ccc(NC(=O)CN(C)CC(=O)NC2CCCc3ccccc32)cc1 (stereo unspecified)	15	-4	-28	2.2%	-4.5	0.4
CC(C)(C)c1cc(CCC(=O)NCCc2ccccn2)cc(C(C)(C)C)c1O	-22	-1	0	-0.3%	-0.7	1.2
CCn1cc(Br)c(C(=O)Nc2cccc(SC)c2)n1	1	-13	2	-4.9%[38.3 µM]	-2.0	-0.2
COCCN(C(=S)Nc1cccc(Cl)c1C)C(C)c1ccco1 (stereo unspecified)	0	-1	-2	1.5%	1.3	1.4
Cc1nn(CC(=O)c2ccc(Br)s2)c(C)c1[N+](=O)[O-]	-2	-16	·	0.5%	-3.2	0.1
CCN(CC)c1ccc(C=O)c(OC)c1	-1	-9	-4	0.3%	-3.8	-0.3
CCc1cc2c(COC(=O)CCNS(=O)(=O)c3cccc(C(F)(F)F)c3)cc(=O)oc2cc1O	9	-2	-9	4.9%	-0.3	4.5
CN(C(=O)c1cc2c(cc1Br)OCO2)c1cccc2ccccc12	1	2	-15	-0.3%	3.5	0.2
O=C(NNC(=O)C1CC(c2cccs2)=NO1)Nc1ccc(Cl)cc1 (stereo unspecified)	2	-9	1	-1.3%	-3.2	-0.2
CCCCn1c(/C=N/Nc2nc3ccccc3[nH]2)nc2ccccc21	-23	-45	-3	16%	-5.5	-0.7

Part of the list above, with values under each structure.
Value order – Six1-Eya2 blk | D2 potentiator | CtBP-E1A blk | PINK1 expr mod | D2 ag | TRPML1 ag
- CN(C(=O)c1cc2c(cc1Br)OCO2)c1cccc2ccccc12
 : 1 | 2 | -15 | -0.3% | 3.5 | 0.2
- Cc1nn(CC(=O)c2ccc(Br)s2)c(C)c1[N+](=O)[O-]
 : -2 | -16 | · | 0.5% | -3.2 | 0.1

(further entries)
SMILES	Six1-Eya2 blk	D2 potentiator	CtBP-E1A blk	PINK1 expr mod	D2 ag	TRPML1 ag
O=c1oc(-c2cccc(C(F)(F)F)c2)nn1-c1ccc(C(F)(F)F)cn1	13	-8	2	-1.4%	-3.7	1.0
COc1ccccc1CNC(=O)CCCNC(=O)Cn1cnc2sc(C)c(C)c2c1=O	3	-9	14	0.9%	-4.5	-0.6
O=C(c1ccc(Cl)nc1)c1cccs1	7	-9	7	-2.3%	-4.7	-0.7
COc1ccccc1CC(=O)NCc1nn(-c2ccccc2)nc1C	2	-18	·	3.2%	-4.8	-1.0
Cc1ccc(N(C)C(=O)C2CCCN2S(=O)(=O)c2ccc3c(c2)n(C)c(=O)c(=O)n3C)cc1 (stereo unspecified)	3	-9	1	1.1%	-1.4	0.6
Cc1ccccc1N(C(=O)Cn1nnc(-c2ccc(F)cc2)n1)C(C(=O)NC(C)(C)C)c1ccncc1 (stereo unspecified)	-11	-7	-7	-0.8%	0.0	2.1
